Screens: PubChem BioAssay, National Center for Advancing Translational Sciences (NCATS)
HPGD inh – HPGD (human) dehydrogenase inhibition | P15428 | purified HPGD, NADH fluorescence kinetic, PGE2 substrate | Potency, µM, without a hit: top-dose activity change, negative = inhibition, most hits filed as inhibitors | hit rate 4.3% among 150,000; active = well fitted inhibition curve with a large enough effect (not every such curve was filed as active); inconclusive = small, poorly fitted or top-dose-only effect, or another doubt; inactive = no such curve, though single readings can be large or run the other way;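 further: top concentration of the series not given in the record; plate controls included wells without enzyme; inactives centre near -10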
Target sequence (P15428 whole entry, looked up): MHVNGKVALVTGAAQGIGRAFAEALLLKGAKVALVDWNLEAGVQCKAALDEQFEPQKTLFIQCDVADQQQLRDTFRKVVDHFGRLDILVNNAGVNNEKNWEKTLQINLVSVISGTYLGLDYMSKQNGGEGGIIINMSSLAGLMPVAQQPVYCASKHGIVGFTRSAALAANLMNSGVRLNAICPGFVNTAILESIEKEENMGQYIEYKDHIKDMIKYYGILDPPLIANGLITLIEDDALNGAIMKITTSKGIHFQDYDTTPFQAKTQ
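20 nM HPGD preincubated 15 min at room temperature with compound in 50 mM Tris-HCl pH 8, 0.01% Tween 20. Started with 1 mM NAD+ and 30 uM prostaglandin E2; NADH fluorescence (360/450 nm) read 5 times over 30-s intervals, last minus first.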
* hit, by the source's call; ? = inconclusive; & = joins results of further samples. On the % scale 0 is the no-effect control and ±100 the full control effect; potency means the concentration at half of the fitted maximal effect.

HPGD inh | SMILES
-11.8% | CCOC(=O)C1CCCN(C(=O)C2c3ccccc3Oc3ccccc32)C1 (stereo unspecified)
-13.0% | COc1ccc(C(=O)ON=C2CCN(c3ccc([N+](=O)[O-])cc3)CC2)cc1
-12.3% | COCCOc1cc(NC(=O)c2sccc2Oc2ccc([N+](=O)[O-])cc2F)c(Cl)cc1Cl
-28.7% | Fc1ccc(-c2nnn(Cc3nc4ccccc4s3)n2)cc1
? | CCn1c(C)c(C(C)=O)c(N2CCN(c3cccc(Cl)c3)CC2)nc1=S
-4.5% | O=C(Nc1ccc(N2CCCC2)cc1)C(c1ccccc1)c1ccccc1
20µM* | CCc1cc(C(C)=O)c(O)cc1OCCCCCC(C)(C)c1nn[nH]n1
? | COc1ccc(-c2cc(=O)oc3c(C)c(OCc4nn[nH]n4)ccc23)cc1
-9.5% | C[C@H]1CC2[C@@H]3CCC4=CC(=O)C=C[C@]4(C)[C@@]3(F)[C@@H](O)C[C@]2(C)[C@@]1(O)C(=O)CO (stereo partly specified)
-3.4% | Cc1nnc(SCC(=O)Nc2ccccc2)n1CCc1ccccc1
-13.5% | Nc1ccc(SC(F)(F)F)cc1C(=O)c1ccccc1
-12.3% | COc1ccccc1NC(=O)COc1cc(C)nc(C(C)C)n1
-14.7% | CCSc1ncnc2c1sc1nc3c(cc12)COC(C)(C)C3
-5.1% | COc1ccccc1NC(=O)Nc1nnc(C(C)C)s1
-11.2% | CC(=O)Oc1cccc(O)c1
-3.3% | Cc1ccnc2nc(C(=O)Nc3ccc4c(c3)OCO4)nn12
0.9% | CCOC(=O)N1CCN(S(=O)(=O)c2ccc(OCC(=O)OC)cc2)CC1
-11.2% | Cn1c(=O)c2c(nc(CN3CCN(c4ccc(F)cc4)CC3)n2Cc2ccccc2F)n(C)c1=O
? | CCCCCn1c(=O)[nH]c2cc(C(=O)NCc3ccco3)ccc2c1=O
-18.5% | CCOc1cc(/C=N/NC(=O)CN2CCOCC2)ccc1OCc1ccccc1
-15.1% | Cc1ccc(/C=C2\SC(=S)N(C(Cc3ccccc3)C(=O)O)C2=O)cc1 (stereo unspecified)
-12.0% | Cc1ccc(C(=O)C(OC(=O)CCC(=O)Nc2cccc(C)c2)c2ccccc2)cc1 (stereo unspecified)
? | COc1ccc(CNc2oc(-c3ccccc3)nc2C#N)cc1
-15.8% | CC(/C=N/NC(=O)c1cccc([N+](=O)[O-])c1)=C\c1ccccc1
-13.0% | COc1ccc(-n2c(SCC(=O)Nc3sc4c(c3C#N)CCCC4)nnc2-c2ccccc2OC)cc1

Next part
HPGD inh | SMILES
-3.9% | COc1cc(NC(=O)c2cccc(COCC(F)(F)C(F)F)c2)cc(OC)c1OC
-4.8% | Cn1c(=O)c2[nH]c(CCC(=O)O)nc2n(C)c1=O
-9.2% | Cc1ccc(SC(C)C(=O)Nc2cccnc2)cc1 (stereo unspecified)
? | COc1cc2[nH]c(=O)n(CCC(=O)NC3CCCC3)c(=O)c2cc1OC
-10.0% | CS(=O)(=O)c1ccc2nc(NC(=O)CCC(=O)c3cccs3)sc2c1
-11.5% | C[C@H]1[C@H](C)OC(=O)C[C@H](O)C[C@H](O)C[C@H](O)CC[C@H](O)[C@H](O)CC(=O)C[C@H](O)[C@H](C(=O)O)[C@H](O)C[C@H](O[C@@H]2O[C@@H](C)[C@H](O)[C@@H](N)[C@@H]2O)C=CC=CC=CC=CCCC=CC=C[C@@](C)(O)[C@H]1O
? | Cc1c(Cc2ccccc2)c(=O)oc2c(CN(C)C)c(O)c(Cl)cc12
2.7% | CC(=O)NC1(c2ccccc2)CCN(Cc2nnnn2C(C)(C)C)CC1
-17.9% | COc1ccc(-c2nnnn2C)cc1S(=O)(=O)NCc1ccccc1
-7.8% | CCNc1ccc(C(=O)OCC(=O)NCc2ccc(C)cc2)cc1[N+](=O)[O-]
0.2% | Cn1c(SCC(=O)NC2CC2)nnc1C(F)(F)F
-10.2% | O=C(Nc1ccccc1F)C1(c2ccccc2)CC1(Cl)Cl (stereo unspecified)
? | Fc1ccc(/C=C2\CCCC3=C2Nc2ncnn2C3c2ccc(F)cc2)cc1 (stereo unspecified)
-14.5% | Cc1nc2sccn2c1-c1nc(-c2cc3ccccc3o2)cs1
-5.6% | CCCCCC(=O)CC[C@@H]1[C@@H](C/C=C\CCCC(=O)O)[C@@H](O)C[C@H]1O
-7.6% | Cc1cc(C)n(-c2nc(N(C)C)nc(N3CCOCC3)n2)n1
-9.4% | COc1ccc(S(=O)(=O)Nc2ccc(F)cc2)cc1N(C)S(=O)(=O)c1ccc(Cl)cc1
-6.3% | O=C(c1ccc(Br)o1)N(c1ccc(Br)cc1)C1C=CS(=O)(=O)C1 (stereo unspecified)
-1.9% | CC(=O)N1CCN(C(=O)Nc2cccc(C(F)(F)F)c2)CC1
-27.8% | Cn1c(N2CCN(c3ccccn3)CC2)nc2c1c(=O)n(Cc1ccc(Cl)cc1)c(=O)n2C
-15.2% | C/C(=N\Nc1ccc(Cl)cc1)c1ccccn1
10.0% | Cc1cc(OCC(=O)C(C)(C)C)c2c(C)c(C)c(=O)oc2c1
-0.7%&-2.7% | COCCNC(=O)C1(C)C=CC2(CCCCC2)N1C(=O)c1ccccc1 (stereo unspecified)
-18.4% | CCOc1ccc(-c2[nH]ncc2Oc2ccccc2OC)c(O)c1
? | CCOC(=O)C1C(C)=C(Nc2ccc(OC)cc2)C(=O)N1c1ccc(OC)cc1 (stereo unspecified)

Going on with the list:
HPGD inh | SMILES
-12.2% | O=C(NC1CCN(Cc2ccccc2)CC1)c1cccc(S(=O)(=O)Nc2cc(C(F)(F)F)ccc2Cl)c1
-8.1% | O=C(OCCN1C(=O)c2ccccc2C1=O)c1ccc(S(=O)(=O)N2CCCCCC2)cc1
-18.7% | O=C(c1ccco1)N1CCN(c2nc3ccccc3c(=O)n2-c2ccccc2)CC1
-27.5% | CCN(CC)C1CCCCC1NS(=O)(=O)c1ccc(Cl)cc1 (stereo unspecified)
22.4µM* | Cc1cccc(Cn2c(SCC(=O)Nc3ccccc3)nc3c2c(=O)[nH]c(=O)n3C)c1
-7.2% | CCOc1cc(C=O)c(Br)cc1OC1CCCC1
-9.1% | COc1cc(C(=O)NC(=S)N(CCc2ccccc2)CCc2ccccc2)cc(OC)c1OC
-10.3% | CCN1CCCC1CNCc1ccccc1OCc1ccc(F)cc1 (stereo unspecified)
-0.2%&-6.3% | CC[C@@]1(O)C(=O)OCc2c1cc1n(c2=O)Cc2cc3c(CN(C)C)c(O)ccc3nc2-1
-23.0% | CCC(c1nnnn1CC1CCCO1)N(CCN1CCOCC1)Cc1cc2cc(C)ccc2[nH]c1=O (stereo unspecified)
-13.0% | N#Cc1cc2c(nc1SCC(=O)NCc1ccc3c(c1)OCO3)CCCCC2
-13.8% | COC(=O)c1sccc1NC(=O)COc1ccc(Cl)cc1Cl
-23.1% | O=C(Nc1cccc(O)c1)C(Cc1ccccc1)N1C(=O)c2cccc3cccc(c23)C1=O (stereo unspecified)
-19.2% | Cc1ccc(O)c(NC(=O)CCC2CCCCC2)c1
-0.6% | Cc1c(C(=O)N2CCN(Cc3ccc4c(c3)OCO4)CC2)cccc1[N+](=O)[O-]
? | O=c1c(C(c2ccc(O)cc2)c2c(O)nc3n(c2=O)CCCS3)c(O)nc2n1CCCS2
-19.3% | CCOc1ccc(C(=O)NCC(=O)OCC(=O)c2ccc3c(c2)-c2ccccc2C3)cc1
-5.9% | CC1CCc2cccc3c2N1c1cc(C#N)c(C#N)cc1O3 (stereo unspecified)
-16.7% | Cc1[nH]c2ccc(S(N)(=O)=O)cc2c1C
-8.6% | CNS(=O)(=O)c1cnccc1N1CCN(c2cccc(Cl)c2)CC1
14.1µM* | Cc1cccc(-n2c(-c3csc(C)c3)n[nH]c2=S)c1
-9.2% | CCC(C)(C)NC(=O)/C=C/c1cccs1
? | O=c1oc2ccccc2cc1-c1nc2c(s1)CCCC2
-16.5% | O=C(Nc1ccc(NC(=O)c2cccs2)cc1)c1ccc(Br)o1
-13.8% | O=C(Nc1nc(-c2cccs2)cs1)c1cccc(S(=O)(=O)N2CCCCC2)c1

Later entries:
HPGD inh | SMILES
-3.5% | O=C(ONC1=NCCCCC1)c1ccc(Cl)cc1
14.1µM* | Cc1ccc(-c2n[nH]c(=O)c3ccccc23)cc1S(=O)(=O)NCCO
-5.9% | Cc1ccc(NC(=O)Nc2nnc(CSCCOc3ccc(Cl)cc3)s2)cc1
? | O=C(Cc1cccs1)Nc1nnc(-c2ccncc2)s1
-2.8% | Cc1nc2ccccc2cc1OCc1ccc(Cl)cc1
-13.3% | COc1ccc2[nH]cc(S(=O)(=O)c3ccc(F)cc3)c(=O)c2c1
-6.0% | CCCSc1ccc(-c2nn(-c3ccccc3)cc2/C=C(/C#N)C(=O)NCCCOC)cc1
-27.0% | CC(=O)c1cccc(S(=O)(=O)N2CCCC(c3nc(-c4ccc(C)o4)no3)C2)c1 (stereo unspecified)
? | Cc1ccc2[nH]c3c(=O)n(CCc4cnc[nH]4)cnc3c2c1
-3.5% | COc1cc(/C=C(/NC(=O)c2ccccc2)C(=O)N2CCN(C)CC2)c([N+](=O)[O-])cc1OC
0.4% | CCOC(=O)N1CCN(CC(O)COCCC23CC4CC(CC(C4)C2)C3)CC1 (stereo unspecified)
-8.3% | CC(=O)Nc1ccc(S(=O)(=O)N=S(C)(C)=O)cc1
? | CCc1nc(Nc2ccc(OC)c(OC)c2)c2nnn(Cc3ccccc3Cl)c2n1
-13.4% | Cc1cccc(NC(=O)c2cccs2)n1
-8.8% | OC[C@H]1O[C@@H]2O[C@H]3[C@H](O)[C@@H](O)[C@@H](O[C@H]4[C@H](O)[C@@H](O)[C@@H](O[C@H]5[C@H](O)[C@@H](O)[C@@H](O[C@H]6[C@H](O)[C@@H](O)[C@@H](O[C@H]7[C@H](O)[C@@H](O)[C@@H](O[C@H]8[C@H](O)[C@@H](O)[C@@H](O[C@H]1[C@H](O)[C@H]2O)O[C@@H]8CO)O[C@@H]7CO)O[C@@H]6CO)O[C@@H]5CO)O[C@@H]4CO)O[C@@H]3CO
-4.9% | COc1ccc(/C(O)=C2\C(=O)C(=O)N(Cc3ccco3)C2c2ccc(OC)cc2OC)cc1 (stereo unspecified)
25.1µM* | CCC(C)NC(=O)COC(=O)c1csc2c1CCCC2 (stereo unspecified)
0.1% | Cc1ccc(S(=O)(=O)c2cccc(S(=O)(=O)N3CCOCC3)c2)cc1S(=O)(=O)N1CCOCC1
-11.2% | Cc1cc(C)nc(Nc2ccc(C(=O)O)cc2)n1
-13.7% | CC(C)Cn1c(SCC(=O)NC(=O)NC2CCCC2)nc2ccccc21
-10.5% | COc1ccc2cc1Oc1ccc(cc1)C[C@H]1c3c(cc4c(c3Oc3cc5c(cc3OC)CCN(C)[C@@H]5C2)OCO4)CCN1C
-24.8% | COc1cccc(-c2nnc3sc(-c4ccccc4)nn23)c1
-26.3% | COc1ccc(-c2nn(-c3ccccc3)cc2/C=N/Nc2ccccn2)cc1OC
-6.2% | c1csc(CNCCN2CCOCC2)c1
-1.1% | Cc1sc(-c2ccccn2)nc1OC(=O)c1ccc(Cl)cc1

Seven compounds picked at random from the list so far, as already listed:
HPGD inh | SMILES
-13.7% | CC(C)Cn1c(SCC(=O)NC(=O)NC2CCCC2)nc2ccccc21
-13.3% | COc1ccc2[nH]cc(S(=O)(=O)c3ccc(F)cc3)c(=O)c2c1
-1.1% | Cc1sc(-c2ccccn2)nc1OC(=O)c1ccc(Cl)cc1
-24.8% | COc1cccc(-c2nnc3sc(-c4ccccc4)nn23)c1
-13.4% | Cc1cccc(NC(=O)c2cccs2)n1
-6.0% | CCCSc1ccc(-c2nn(-c3ccccc3)cc2/C=C(/C#N)C(=O)NCCCOC)cc1
-4.9% | COc1ccc(/C(O)=C2\C(=O)C(=O)N(Cc3ccco3)C2c2ccc(OC)cc2OC)cc1 (stereo unspecified)

Remaining list, next part.
HPGD inh | SMILES
-4.8% | Cc1ccccc1C(=O)NCc1nnc(SCC(=O)N2c3ccccc3Sc3ccccc32)n1C
-2.1% | CCCCC1=CC2=CC(=O)C(C)(OC(=O)CC)C(=O)C2=CN1CCOC (stereo unspecified)
-7.4% | CCn1c(CCC(=O)Nc2nc3c(s2)CCCC3)nc2cc(S(=O)(=O)N(C)C)ccc21
-17.3% | CC(=O)N1C(=O)C2(C(C#N)=C(N)Oc3n[nH]c(-c4ccccn4)c32)c2ccccc21 (stereo unspecified)
? | O=C(COc1ccc(Cl)cc1)Nc1c(-c2cccs2)nc2ccccn12
-3.2% | C/C(=N\NC(=O)c1cccnc1)c1cc(C)oc1C
-13.8% | CC(C)CNC(=O)c1ccccc1NC(=O)Nc1ccccc1
-21.3% | Cc1ncsc1C(=O)Nc1nc2c(s1)CC(C)CC2 (stereo unspecified)
? | CCn1cc(CNC(=O)CSc2nc(-c3ccc(OC)c(OC)c3)cc(C(F)(F)F)n2)c(C)n1
0.7% | CCOc1ccc(-n2ccnc2SCC(=O)NCc2ccc3c(c2)OCO3)cc1
-6.1% | CCCN1C(=O)C(Cc2nc3ccccc3c(=O)n2C)c2ccccc21 (stereo unspecified)
-19.5% | Nc1nc2c(s1)CC(c1ccccc1)CC2 (stereo unspecified)
-16.9% | O=C(NCc1ccc(F)cc1)c1cc(-c2cccs2)on1
-11.1% | COc1cc(CN2CCN(c3cccc(C)c3C)CC2)cc(Br)c1O

Compounds from the list above that have a tert-butyl group (two):
HPGD inh | SMILES
2.7% | CC(=O)NC1(c2ccccc2)CCN(Cc2nnnn2C(C)(C)C)CC1
10.0% | Cc1cc(OCC(=O)C(C)(C)C)c2c(C)c(C)c(=O)oc2c1

Rewritten tab-delimited: entries from further up.
SMILES	HPGD inh
O=C(NCc1ccc(F)cc1)c1cc(-c2cccs2)on1	-16.9%
Cc1ccccc1C(=O)NCc1nnc(SCC(=O)N2c3ccccc3Sc3ccccc32)n1C	-4.8%

An excerpt; rates above refer to the full screens.
